PMP22 txn: Cell-based coincidence reporter assay to measure PMP22 gene transcription in S16 Pmp22-F2sN cells - Primary screen. S16 Pmp22-F2sN Schwann cells (luciferase reporters placed in the Pmp22 gene), FLuc/NLuc coincidence luminescence, 24 h. Potency, µM (top dose mostly 57.5 µM), without a hit: at the highest dose activity change, negative = inhibition, most hits filed as inhibitors. 43,000 tested, 2% active. AID 1508649, 2021; active = clear falling dose curves in both reporters; inconclusive = both reporters move, but less clearly or upward; inactive = either reporter flat; the % is the NLuc reporter signal; note: % is set by controls: 0 for no effect and ±100 for the full control effect; some results filed as inactive show a strong effect at the top dose
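Schwann cells carrying the coincidence reporter were exposed to library compounds for 24 h at 37C, then lysed and read for FLuc and, after quenching, NLuc luminescence on a CCD imager.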
HTT prom inh: Primary qHTS for Identification of Small Molecule Inhibitors of Huntingtin Promoter Activity | HEK293 HTT promoter firefly luciferase reporter (activity 0% = vehicle and -100% = no light), 24 h | Potency, µM (top dose mostly 57.5 µM), for inactives: at the top dose activity change, negative = inhibition, most hits filed as inhibitors | AID 1508623, 2021 | 48,000 tested, 0.93% active; active = well fitted inhibition curve with a large enough effect; inconclusive = small, poorly fitted or top-dose-only effect; inactive = no such curve, though single readings can be large or run the other way; note: nearly all actives have a fitted effect of over 50% in size
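Firefly luciferase signal from promoter-reporter HEK293 cells was scaled between vehicle (0%) and zero RLU (-100%). Compounds were tested at final concentrations of up to 57.5 uM over 24 h at 37 degrees C. PTC124 at 50 uM final served as control inhibitor.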
The depositor's hits bear a star; u = inconclusive; [ ] = dose if it differs, or a comment. Potency is the fitted concentration of half-maximal effect.

Order of values – PMP22 txn, HTT prom inh
1. CC(=O)C1=C(c2ccc(C)cc2)N(C(C)=O)n2c(nnc2-c2ccccc2)S1
    u, -10.3%
2. Cc1cc(OC(C)C(=O)N2CCC(c3nc4ccccc4o3)CC2)ccc1Cl (stereo not given)
    u, u
3. CCCCN(CC)CCCNC(=O)c1cn(C)c2ccc(S(=O)(=O)N(C)C3CCCCC3)cc2c1=O
    10.3%, -43.0%[11.5 µM]
4. CCc1ccc(-c2nc3ccc(Br)cc3c(C(=O)O)c2C)s1
    3.5%, -29.1%
5. CCOC(=O)c1cnc2c(ccc3ccccc32)c1Nc1cccc(Cl)c1
    5.0%, -11.6%[11.5 µM]
6. Cc1cccc(NC(=O)C2CCN(c3nnc(-n4c(C)ccc4C)s3)CC2)c1C
    u, -23.7%
7. COc1ccc(NC(=O)c2ccc3c(c2)c(C)c(C)n3Cc2ccc(F)cc2)cc1
    15µM*, u
8. COc1cc(OC)c(C2C=C(c3ccc(C)cc3)Nc3c(C(=O)Nc4ccccc4)cnn32)cc1OC (stereo not given)
    3.2%, u
9. O=C1CCCc2[nH]c(=O)c(-c3nc(-c4cccc([N+](=O)[O-])c4)cs3)cc21
    u, -6.8%
10. Cc1cc(=O)[nH]c2nnc(SCc3ccccc3F)n12
    2.0%, -26.9%
11. CCOC(=O)COc1ccc([N+](=O)[O-])cc1-c1ccnc2cc(-c3ccc(C)cc3)nn12
    u, -7.6%
12. Cc1cc(C)c2oc(C(=O)NCCc3ccc(S(N)(=O)=O)cc3)cc(=O)c2c1
    -11.8%, 17.2%
13. COc1ccccc1CNC(=O)CN1C(=O)COc2ccc(S(=O)(=O)N3CCCCC3)cc21
    -20.2%, -9.8%
14. CCc1ccc(CN(C(=O)c2nc(SC)ncc2Cl)C2CCS(=O)(=O)C2)cc1 (stereo not given)
    -8.0%, -23.5%
15. O=C(NCc1cccc(Br)c1)c1ccc(-n2cnc3cccnc32)cc1
    -11.2%, -19.4%
16. COc1ccccc1NC(=O)CCNS(=O)(=O)c1ccc2c(c1)CCCC(=O)N2
    -1.4%, -12.7%
17. Cc1ccc(NC(=O)Cn2c(=O)n(CCC(C)C)c(=O)c3cccnc32)cc1C
    u, -9.0%
18. CSc1ccc(CCNC(=O)C(C)n2nc(C)c3c(C)n(-c4ccccc4)nc3c2=O)cc1 (stereo not given)
    u, u
19. Cc1ccc(NC(=O)C2CCCN(S(=O)(=O)c3cccc4nsnc34)C2)cc1C (stereo not given)
    -9.9%, -29.5%
20. COc1cccc(/C=C/c2nc(C#N)c(NCCN(C)C)o2)c1
    -24.5%, -13.4%
21. Cc1ccc(S(=O)(=O)N2CCN(Cc3nc4ccc(C)cc4o3)CC2)c(C)c1
    u, -7.6%
22. O=C(c1ccc2c(c1)N(Cc1ccccc1F)C(=O)c1ccccc1S2=O)N1CCN(c2ccccc2)CC1 (stereo not given)
    u, u
23. COCCNC(=O)c1cc(-c2cccc(Cl)c2)on1
    -12.1%, 56.8%[activator]
24. COc1cccc(C2C(C(N)=O)=C(C)Nc3ncnn32)c1 (stereo not given)
    -2.6%, 4.6%
25. O=C(CCNS(=O)(=O)c1ccc2c(c1)CCN2C(=O)C1CC1)Nc1ccc(Cl)cc1
    u, u
26. CCOc1ccc(-c2cn3c(n2)sc2cc(C(=O)NCCC4=CCCCC4)ccc23)cc1
    u, -4.2%
27. Cc1cc(=O)n(Cc2c(F)cccc2Cl)c2c1c(C)nn2-c1cccc(F)c1
    -30.2%, 2.2%
28. CCOc1ccc(CCNC(=O)C(C)n2nc(C)n3c(cc4occc43)c2=O)cc1OCC (stereo not given)
    1.8%, -19.9%
29. Cc1ccc(NC(=O)N2CCN(c3nnc(C)c4c(C)n(-c5ccccc5)nc34)CC2)cc1Cl
    -1.2%, -5.5%
30. O=C(Nc1ccc(Oc2ccccc2)cc1)C1CCN(S(=O)(=O)c2ccc(Cl)cc2)CC1
    -14.5%, -28.5%
31. Cc1cc2c(cc3c(SCc4cccc(Cl)c4)nnc(C)n32)o1
    -28.0%, 9.6%
32. CCc1ccc2[nH]cc(S(=O)(=O)c3ccc(C(C)C)cc3)c(=O)c2c1
    39.3%, u
33. CNC(=O)c1ccc2nc(Cc3ccccc3)oc2c1
    u, 44.6%[activator]
34. CCCN(C(=O)c1cc2c(=O)[nH]c3ccc(C)cc3c2s1)c1ccc(CC)cc1
    7.2%, -10.4%
35. CS(=O)(=O)N1CCc2cc(C(=O)Nc3ccc(C(F)(F)F)cc3)ccc21
    -8.0%, u
36. Cc1ccc(CN2CCSc3ccc(C(=O)Nc4ccc(C)cc4)cc32)cc1
    u, 8.2%
37. COc1cccc(C(=O)c2cn(CC(=O)NCc3ccccc3Cl)c3nc(C)ccc3c2=O)c1
    u, u
38. CC1CCCCN1CCNC(=O)c1ccc(Cn2c(SCc3ccccc3)nc3cccnc32)cc1 (stereo not given)
    -46.1%, 32.4%[activator]
39. O=C(c1ccc2c(c1)N(Cc1cccc(Cl)c1)C(=O)c1ccccc1S2(=O)=O)N1CCCCCC1
    u, u
40. Cc1nc(SCC(=O)Nc2nsc(-c3ccc(C(C)(C)C)cc3)n2)c2c3c(sc2n1)CCCC3
    -23.7%, -21.6%
41. Cn1nc(C(=O)NCc2ccc(Cl)cc2)c2c1-c1ccccc1S(=O)(=O)C2
    15µM*, u
42. CCOc1ccc(CNC(=O)CCn2c(=O)c3cccn3c3cccnc32)cc1
    -11.0%, 0.8%
43. Cc1ccc(C(=O)Nc2nc3n(n2)C(c2ccccc2)C=C(c2ccccc2)N3)cc1 (stereo not given)
    -27.7%, -17.1%
44. CCOC(=O)C1(C)C=C(Nc2ccc(C)cc2)C(=O)N1c1ccccc1 (stereo not given)
    2.9%, -4.4%
45. CCc1ccc(NC(=O)[C@H](CSCc2ccccc2)N2Cc3ccccc3C2=O)cc1
    -4.8%, -19.6%
46. CCOc1ccc(-c2cc(C(=O)NCCc3ccc(OC)c(OC)c3)c3c(-c4ccc(F)cc4)[nH]nc3n2)cc1
    u, u
47. CC(=O)c1cccc(NC(=O)CSc2nnc3ccc(-c4ccc(F)cc4)nn23)c1
    -21.5%, -2.4%
48. Cc1ccc2[nH]c(CSc3nnc(NC(=O)c4ccccc4C)s3)cc(=O)c2c1
    u, u
49. COc1ccc(NC(=O)Cn2c(=O)oc3cc(S(=O)(=O)NC4CCCC4)ccc32)cc1OC
    -10.5%, u
50. Cc1ccc(Nc2c3c(nc4nncn24)CCC3)c(C)c1
    -5.0%, -15.4%
51. Cc1ccc(NC(=O)N2CCN3CCCCC3C2)cc1C (stereo not given)
    3.0%, 1.6%
52. Cc1cccc(C(=O)Nc2nc3c(s2)CCCC3)c1
    -17.8%, -4.0%
53. CCOC(=O)COc1ccc(F)cc1C(=O)c1ccn2nc(-c3ccc(C)cc3)cc2n1
    -3.1%, -7.7%
54. CCOC(=O)c1ccccc1NC(=O)COc1ccccc1-c1nnc(-c2ccccc2)o1
    u, -29.2%
55. Cc1cc(N2CCC(C)CC2)nc2ccc(NC(=O)CCC(=O)N3CCN(c4cccc(C(F)(F)F)c4)CC3)cc12
    u, u
56. CCN(CC)CCCNC(=O)c1nn(-c2ccc(C)cc2)c(=O)c2c1c1ccccc1n2C
    u, -8.3%
57. CCC(C)Nc1sc(S(=O)(=O)CC)nc1S(=O)(=O)c1ccc(C)cc1 (stereo not given)
    u, -14.2%
58. O=C(CSc1nc2ccccc2n1Cc1ccccc1F)NCc1ccccc1
    -11.5%, u
59. O=S(=O)(c1ccccc1)c1nc(-c2cccs2)oc1SCc1ccccc1F
    -18.0%, -15.8%
60. CCc1ccc(C(=O)c2cn(CC(=O)Nc3ccc4c(c3)OCCO4)c3ccc(F)cc3c2=O)cc1
    u, -17.1%

(further entries)
Order of values – PMP22 txn, HTT prom inh
61. CCc1ccccc1N(c1nc(-c2ccc(OC)c(OC)c2)no1)c1nc(-c2ccc(OC)c(OC)c2)no1
    40.5%, -25.2%
62. COCCCNC(=O)CCC(=O)NNc1nc2ccccc2c2nc(C)nn12
    3.6%, -6.5%
63. CCc1ccc(-n2c(N3CCN(c4ccc(F)cc4)CC3)nc3ccccc3c2=O)cc1
    -28.2%, u
64. O=C(NCc1cccs1)c1ccc(CSc2nc3cccnc3n2Cc2ccccc2F)cc1
    -3.8%, -29.6%
65. Cc1ccc(Cl)cc1NC(=O)CN1C(=O)CCc2ccccc21
    -13.9%, -18.6%
66. Brc1cccc(CNCCSc2nnnn2-c2ccccc2)c1
    -17.6%, -19.1%
67. CC(=O)c1ccc(N2CCN(S(=O)(=O)c3ccc4c(c3)C(C)(C)C(=O)N4)CC2)cc1
    u, u
68. CC(=O)N1CCOc2cc(S(=O)(=O)Nc3cc(C(F)(F)F)ccc3Cl)c(C)cc21
    -5.6%, 8.0%
69. COc1cccc(NS(=O)(=O)c2ccc3c(c2)n(C)c(=O)n3C)c1
    u, -32.0%
70. O=C(CCCCCn1c(=O)[nH]c2ccsc2c1=O)NCc1ccccc1
    -32.1%, -8.8%
71. Cc1cc(C)cc(NC(=O)c2nnn(Cc3cccc(Br)c3)c2N)c1
    u, -28.2%
72. O=C(NC1CCN(Cc2ccccc2)CC1)c1ccc(Cn2c(=O)c3ccccc3n(Cc3cccc(F)c3)c2=O)cc1
    u, -8.2%
73. COc1ccc(Cl)cc1NC(=O)Cn1ncc2c3ccccc3n(Cc3ccccc3)c2c1=O
    -0.3%, -4.7%
74. O=C(CC1(O)C(=O)N(CCc2ccccc2)c2ccc(Br)cc21)c1ccccc1 (stereo not given)
    u, u
75. O=C(Nc1ccc(F)c(Cl)c1)c1cc(S(=O)(=O)N2CCCc3ccccc32)ccc1F
    u, u

Full records, quoted from the list:
Listed for `CC1CCCCN1CCNC(=O)c1ccc(Cn2c(SCc3ccccc3)nc3cccnc32)cc1` (stereo not given) → PMP22 txn: -46.1%; HTT prom inh: 32.4%[activator]
Listed for `Cc1ccc(NC(=O)C2CCCN(S(=O)(=O)c3cccc4nsnc34)C2)cc1C` (stereo not given) → PMP22 txn: -9.9%; HTT prom inh: -29.5%
Listed for `CCc1ccc(CN(C(=O)c2nc(SC)ncc2Cl)C2CCS(=O)(=O)C2)cc1` (stereo not given) → PMP22 txn: -8.0%; HTT prom inh: -23.5%

Next records.
Order of values – PMP22 txn, HTT prom inh
76. CC(C)(C)c1ccc(C(=O)Nc2cc(-c3nc4ccccc4o3)ccc2Cl)cc1
    -14.8%, 6.9%
77. COc1cc(Br)ccc1C1C(C(=O)Nc2ccc(C)cc2C)=C(C)Nc2nnnn21 (stereo not given)
    u, u
78. CCOC(=O)c1[nH]c(C)c(CCC(=O)N2CCN(c3ccccc3)CC2)c1C
    -2.4%, -10.3%
79. Nc1c(-c2nc(-c3ccc4c(c3)OCO4)cs2)c2ccccn2c1C(=O)c1ccccc1
    -14.1%, -21.3%
80. CCOC(=O)c1ccc(N2C(=O)c3n[nH]c(-c4cccs4)c3C2c2ccc(C(C)C)cc2)cc1 (stereo not given)
    u, 25.1µM*
81. COc1ccc(-c2nc3scc(CCNS(=O)(=O)c4c(C)noc4C)n3n2)cc1
    -4.0%, -8.9%
82. O=C(CSc1oc(-c2ccccc2)nc1S(=O)(=O)c1ccc(Cl)cc1)NC1CCCCC1
    -7.4%, 7.9%
83. CCOc1ccc(NS(=O)(=O)c2ccc3nc(-c4ccccc4)[nH]c3c2)cc1
    u, -29.7%
84. Cc1ccc(CNC(=O)CN2CCN(Cc3ccc(F)cc3)C2=O)cc1
    9.5%, -4.9%
85. COc1cccc(CNC(=O)C2CCN(c3nnc(-n4c(C)ccc4C)s3)CC2)c1OC
    -27.1%, 1.5%
86. Cc1cccc(OCCCCn2nnc3sc4c(c3c2=O)CCC(C)C4)c1 (stereo not given)
    5.5%, 12.4%
87. C=CCc1cccc2cc(C(=O)Nc3cccc(Cl)c3)c(=O)oc12
    -5.1%, 17.9%
88. COc1ccc(-n2nc(C(=O)N3CCN(c4cccc(C)c4C)CC3)c3c4ccccc4n(C)c3c2=O)cc1
    13.3%, -6.0%
89. COc1ccc(-c2nc3ccccc3o2)cc1NC(=O)CSc1ccc(Cl)cc1
    u, 12.6%
90. CC(C)(C)OC(=O)N1CCC(c2c(C(=O)NC3CCCCC3)cnn2-c2ccc(F)cc2F)CC1
    -14.7%, -6.2%

From entry 76 up to 77, as listed above:
Order of values – PMP22 txn, HTT prom inh
76. CC(C)(C)c1ccc(C(=O)Nc2cc(-c3nc4ccccc4o3)ccc2Cl)cc1
    -14.8%, 6.9%
77. COc1cc(Br)ccc1C1C(C(=O)Nc2ccc(C)cc2C)=C(C)Nc2nnnn21 (stereo not given)
    u, u

More compounds:
Order of values – PMP22 txn, HTT prom inh
91. CCOc1cccc(C(=O)N2CCC(c3nc4ccccc4s3)CC2)c1
    10.8%, -4.9%[11.5 µM]
92. COC(=O)c1cc(NC2(c3ccccc3)C(=O)c3ccccc3C2=O)cc(C(=O)OC)c1
    -185.6%, -10.2%
93. COc1ccc(CNC(=O)Cn2c(=O)cc(C)c3c(C)nn(-c4cccc(Cl)c4C)c32)cc1
    3.9%, 0.5%
94. COc1ccc(NC(=O)CSc2oc(-c3ccco3)nc2S(=O)(=O)c2ccc(C)cc2)c(OC)c1
    2.5%, -23.1%

Compound activity as filed in PubChem.
